# Compound activity as filed in PubChem.
# Cruzain noTriton = inhibitors of Trypanosoma cruzi cruzain without detergent. actives 2.3% (n = 200,000). P25779. purified cruzain, Z-FR-AMC fluorescence, no detergent. AID 1476. Potency, µM, for inactives: max response, negative = inhibition, actives largely listed as inhibitors;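 also: plate controls were enzyme without inhibitor for no effect and buffer without enzyme for full effect; nearly all actives have a fitted effect of over 40% in size; top concentration of the series not given in the record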
# Target sequence (P25779 123-467 limits assumed): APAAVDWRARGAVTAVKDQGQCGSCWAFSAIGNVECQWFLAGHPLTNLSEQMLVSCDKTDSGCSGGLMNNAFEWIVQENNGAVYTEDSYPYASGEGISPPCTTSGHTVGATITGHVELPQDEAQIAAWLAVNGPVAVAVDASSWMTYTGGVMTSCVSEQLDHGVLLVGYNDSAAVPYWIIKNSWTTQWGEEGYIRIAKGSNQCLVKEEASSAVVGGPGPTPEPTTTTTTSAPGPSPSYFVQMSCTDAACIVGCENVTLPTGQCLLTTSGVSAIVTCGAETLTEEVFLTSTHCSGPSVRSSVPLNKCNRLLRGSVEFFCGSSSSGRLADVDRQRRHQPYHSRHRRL
#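 Purified cruzain at 1.5 nM, pre-incubated 15 min with compound at room temperature in 100 mM sodium acetate pH 5.5, 5 mM DTT, 0.00005% Triton X-100. Reaction started with 2 uM Z-FR-AMC; AMC fluorescence increase over 60 s gives rate.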
# Cruzain Triton = inhibitors of Trypanosoma cruzi cruzain with detergent | P25779 | Potency, µM, inactives show max response, negative = inhibition, actives largely listed as inhibitors | actives 0.43% (n = 200,000) | purified cruzain, Z-FR-AMC fluorescence, 0.01% Triton;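 also: plate controls were neutral wells for no effect and buffer without enzyme for full effect; nearly all actives have a fitted effect of over 40% in size; top concentration of the series not given in the record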
#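 Cruzain (1.5 nM) preincubated 15 min at RT with compound in 100 mM sodium acetate pH 5.5, 5 mM DTT, 0.01% Triton X-100. Reaction started with 2 uM Z-FR-AMC; AMC fluorescence (ex 360/em 450 nm) change over 60 s gave rate.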
# NS1 inh = inhibitors of influenza NS1 protein function; S. cerevisiae slowed by influenza A NS1, growth recovery by OD600; Potency, µM (series often up to 46.1 µM), for the others: top-dose activity, positive = more growth; actives 0.4% (n = 270,000); active means well fitted rising curve with a large enough effect; inconclusive means small, poorly fitted or top-dose-only effect; inactive means no such curve, though single readings can be large or run the other way; also: nearly all actives have a fitted effect of over 50% in size
#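 Read-out: OD600 growth recovery of NS1-expressing budding yeast. Cells grown overnight at 30C in -URA glucose medium, washed, resuspended and diluted 1:100 in 2% galactose assay medium, pH 6.0. Same strain lacking NS1 served as positive control.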
# Marburg entry inh = Marburg virus entry inhibition. Marburg virus pseudotyped entry inhibition, cell reporter; control for the full effect not named in the record; about a third of the inactives were read at about 46 µM. Potency, µM (highest dose often 37.8 µM), without a hit: at the highest dose activity change, negative = inhibition, usual class: inhibitors. actives 1.8% (n = 300,000); active = well fitted inhibition curve with a large enough effect; inconclusive = small, poorly fitted or top-dose-only effect, or effect the other way; inactive = flat fitted curve, though single readings scatter; tested in HEK293 cells; about a fifth of its hits are not listed in these tables; also: % is scaled to controls: 0 for no effect and ±100 for the full control effect; luciferase read-out
# SARS PLP yeast = blocks SARS-CoV papain-like protease in a yeast assay; S. cerevisiae expressing SARS-CoV PLpro, growth rescue; control for the full effect not named in the record; Potency, µM (doses to about 32.9 µM), without a hit: top-dose activity, positive = growth rescue; actives 0.19% (n = 330,000); AID 485353; active means well fitted rising curve with a large enough effect; inconclusive means small, poorly fitted or top-dose-only effect; inactive means no such curve, though single readings can be large or run the other way; also: 0% is about no effect; nearly all actives have a fitted effect of over 55% in size; growth read by luminescence after 48 h
# StopGo reporter = FMDV 2A StopGo reporter, luciferase signal; human cells with a luciferase reporter of 2A StopGo recoding; control for the full effect not named in the record; Potency, µM (doses to about 57.9 µM), inactives show at the top dose signal change, negative = less light; actives 1.2% (n = 410,000); AID 1159524; active = well fitted falling curve with a large enough effect; inconclusive = small, poorly fitted or top-dose-only effect; inactive = no such curve, though single readings can be large or run the other way; tested in HEK293T cells; also: % is scaled to controls: 0 for no effect and ±100 for the full control effect; nearly all actives have a fitted effect of over 45% in size; luciferase light after 4 h
# Lassa entry inh = Lassa virus entry inhibition | Potency, µM (series often up to 37.9 µM), inactives show at the highest dose activity change, negative = inhibition, actives largely listed as inhibitors | Lassa virus pseudotype entry inhibition, cell reporter; control for the full effect not named in the record | actives 1.2% (n = 300,000) | AID 540256; active means well fitted inhibition curve with a large enough effect; inconclusive means small, poorly fitted or top-dose-only effect, or effect the other way; inactive means flat fitted curve, though single readings scatter; tested in HEK293 cells; also: % is scaled to controls: 0 for no effect and ±100 for the full control effect; nearly all actives have a fitted effect of over 50% in size; luciferase read-out
# RE007 growth inh = less growth of the S. pombe RE007 Vpr strain | S. pombe RE007 Vpr strain, BacTiter-Glo ATP luminescence, 24 h; control for the full effect not named in the record | Potency, µM (top dose mostly 92.2 µM), for the others: at the highest dose activity change, negative = less growth | actives 0.21% (n = 360,000); active = well fitted falling curve with a large enough effect; inconclusive = small, poorly fitted or top-dose-only effect; inactive = no such curve, though single readings can be large or run the other way;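 also: % is scaled to controls: 0 for no effect and ±100 for the full control effect; nearly all actives have a fitted effect of over 50% in size; the assay follows cell death caused by Vpr and the record does not say whether a fall means rescue or toxicity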
#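 Fission yeast RE007 carrying one integrated HIV-1 vpr copy, seeded at OD 0.01 in PMG+AL medium with 23 nL pinned compound. Grown 24 h at 30 degrees; viability read by BacTiter-Glo luminescence after 5 min.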
# * marks the source's active call; other numbers are inactive results; ? = inconclusive; . = not tested or not shown; & = joins results of further samples; [ ] = another dose, or the depositor's remark. Unless noted, calls follow the shape of the dose curve; as a rule, active = well fitted curve in the direction sought with a large enough effect; inconclusive = small, poorly fitted or top-dose-only effect, or another doubt; inactive = no such curve, though single readings can be large; an effect the other way counts as inactive or inconclusive. Potency is read from the fitted curve at half-maximal effect. An unsorted share of the library. Share with any hit: about 4.8%.
canonical_smiles	RE007 growth inh	NS1 inh	StopGo reporter	Marburg entry inh	Lassa entry inh	Cruzain Triton	Cruzain noTriton	SARS PLP yeast
CCOC(=O)COc1ccc(-c2nnc(-c3ccccc3)o2)cc1	?	-19%	-8%	1%	18%	-3.8%	18%	-22%
CCOC(=O)c1ccc2c(c1)N(CC(=O)Nc1ccc(CC)cc1)C(=O)c1ccccc1S2	.	.	-4%	.	25%[46.1 µM]	-0.5%	12%	.
O=C(NNC(=O)c1sccc1-n1cccc1)c1cccc(Cl)c1	3%	7%	-28%	?	3%	0.1%	5%	-6%
COc1ccc(NC(=O)C(=O)NCCc2csc(-c3ccc(Cl)cc3)n2)cc1OC	.	.	-30%	.	4%[46.1 µM]	-1.4%	2%	.
O=C(NN1CC(=O)N(c2cc(Cl)cc(Cl)c2)CC1=O)c1cccs1	-8%	4%	-18%	.	.	.	.	-1%
O=C(Nc1ccc(Cl)cn1)c1ccccc1SCc1ccccc1	-7%	-14%	?	-42%	?	.	.	-2%
O=C(NNC(=O)C1CCC(C(=O)NNC(=O)c2cccs2)CC1)c1cccs1 (stereo not drawn)	0%	2%	-4%	?	-1%[46.1 µM]	.	.	0%
COc1cc(CC(=O)O)c(C(C)=O)cc1OC	-4%	10%	-1%	2%	-2%	3.4%	-3%	1%
COCCNC(=O)c1nc2c(nnn2Cc2cc(C)ccc2C)c(=O)[nH]1	-6%	11%	.	?	-9%	4.2%	3%	?
Cc1ccc(Cl)cc1N1C(=O)N(Cc2ccc(C#N)cc2)c2ccccc2S1(=O)=O	.	.	0%	.	-1%[46.1 µM]	-1.0%	-51%	.
O=[N+]([O-])c1cccc(/C=C/c2ccccn2)c1	-21%	-8%	32%[activator]	.	.	.	.	-1%
CCOc1cc(/C=C(\C#N)C(=O)Nc2ccccc2C(=O)O)ccc1OC(=O)c1ccc(C)cc1	5%	11%	34%[activator]	3%[46.1 µM]	9%[46.1 µM]	.	.	0%
COc1ccc2c(c1)c1ccccc1n2C	-21%	2%	47%[activator]	-4%	9%	1.5%	-7%	-5%
COc1cc(CC(=O)Nc2ccc3nc(C)sc3c2)cc(OC)c1OC	4%	-9%	-20%	-38%	-14%	-3.0%	15%	?
Cc1cccc(N2CCN(S(=O)(=O)c3c(C)noc3/C=C/N(C)C)CC2)c1C	9%	18%	-25%	.	.	.	.	7%
Nc1nnc(SCc2cccnc2)s1	-1%	-1%	12%	?	4%	3.7%	-1%	10%
CC1(C)CSC(=NCc2ccccc2)N1	-5%	-5%	6%	7%	5%	.	.	-1%
Cc1[nH]c2ccccc2c1CCCNC1CCCCC1	-5%	20%	-16%	?	?	-1.9%	14%	10%
Cc1cc(=O)c(C(=O)O)cn1Nc1ccc(Cl)cc1	7%	12%	-1%	?	14%	-0.5%	-4%	-3%
Cc1ccc(S(=O)(=O)N2CC3CC(C2)c2cccc(=O)n2C3)cc1 (stereo not drawn)	5%	-7%	.	12%	-5%	4.3%	9%	-3%
COc1cccc(-c2[nH]nc3c2C(c2ccsc2)C(C#N)=C(N)O3)c1 (stereo not drawn)	1%	11%	-11%	4%	7%	-18%	-21%	3%
CCOc1ccc(N2CC(c3nc4ccccc4n3CCOc3ccc(OC)cc3)CC2=O)cc1 (stereo not drawn)	.	.	1%	0%[46.1 µM]	1%[46.1 µM]	-3.9%	7%	.
COC1OC(CO)C(O)C(O)C1O (stereo not drawn)	-2%	6%	-12%	.	.	.	.	2%
O=C(Oc1ccc(Cl)c2ccccc12)N1CCCCC1	-9%	-4%	-13%	-7%	3%	-10%	-6%	?
O=C(Nc1cccc([N+](=O)[O-])c1)c1ccc2c(c1)C(=O)N(c1ccccn1)C2=O	6%	9%	-23%	-3%[46.1 µM]	-17%[46.1 µM]	.	.	4%

# Next section:
canonical_smiles	RE007 growth inh	NS1 inh	StopGo reporter	Marburg entry inh	Lassa entry inh	Cruzain Triton	Cruzain noTriton	SARS PLP yeast
CCCCC1=CC2=CC(=O)C(C)(OC(=O)CC)C(=O)C2=CN1c1ccc(OC)cc1 (stereo not drawn)	-21%	16%	-25%	.	.	.	.	-6%
CCc1nnc(NC(=O)CSc2nc(-c3ccccc3)cc(-c3ccc(F)cc3)c2C#N)s1	13%	5%	135%[activator]	-18%	?	3.4%	7.9µM*	5%
COC(=O)C1=C(O)/C(=C\c2ccc(CNC(=O)C(=O)Nc3ccc(C)cc3)o2)N=C1C	-13%	10%	15%	?	2%	-9.2%	17%	-2%
O=C(NCc1nnc(SCC(=O)N2CCCCCC2)o1)c1ccc(F)cc1	-1%	11%	20%	-8%	2%	.	.	1%
O=C(CCCNC(=O)c1ccc(Cl)cc1)Nc1ccccc1C(F)(F)F	-1%	-5%	15%	.	.	.	.	1%
Cc1oc2ncnc(N3CCOCC3)c2c1C(=O)NCCc1ccccc1	.	.	9%	.	0%[46.1 µM]	-3.0%	3%	.
COc1ccc(-c2nc3ccccc3c(=O)n2CCOc2ccccc2C)cc1	-10%	-1%	14%	19%	5%	-1.6%	?	-16%
Cc1cc(C)c(NC(=O)CSc2nccn2-c2cccc(Cl)c2)c(C)c1	.	.	-11%	.	-19%[46.1 µM]	-5.9%	7%	.
CCN(CC)S(=O)(=O)c1cc(-c2onc(C)c2C)ccc1OC	.	.	1%	.	-13%[46.1 µM]	0.1%	2%	.
CC(C)(C)C(=O)c1cnc(Nc2ccccc2Cl)s1	-18%	3%	-2%	0%	-29%	-9.1%	-10%	.
COCCn1ccc2c(OCC(=O)NCc3ccc(C)cc3)cccc2c1=O	-2%	.	-10%	20%	?	.	.	5%
COc1ccc2ccc3c(c2c1)N=C[C@]1(O3)N(C)c2ccccc2C1(C)C	-16%	1%	?	?	-7%	-6.7%	?	-11%
CC1CCCCN1CC(O)COCc1ccc(Cl)cc1 (stereo not drawn)	-15%	-11%	-13%	-4%[46.1 µM]	-2%	.	.	1%
Cc1ccc(S(=O)(=O)NC(=O)c2ccc(-c3ccc(C)c4ccccc34)o2)cc1	4%	-4%	6%	20%	19%	25µM*	8%	-40%
Cc1cccnc1CCNC(=O)C1CCC(=O)N(Cc2cccc(F)c2)C1 (stereo not drawn)	-2%	13%	-9%	6%	-2%	.	.	-3%
Cc1ccc(NC(=O)c2cc(S(=O)(=O)NCCC3=CCCCC3)ccc2F)cc1C	.	.	-26%	.	?	1.5%	-1%	.
CCCSc1nc2sc3c(c2c(=O)[nH]1)CC(C)(CC)OC3 (stereo not drawn)	4%	9%	0%	-2%[46.1 µM]	24%[46.1 µM]	.	.	3%
NC(=O)C1CCN(C(=S)c2ccc(-c3ccc(Br)cc3)o2)CC1	-5%	.	73%[activator]	15%&15%[46.1 µM]	8%	.	.	1%
CCN(CC)CCNC(=O)CS(=O)Cc1nc(-c2ccc(Cl)cc2)oc1C (stereo not drawn)	-5%	7%	0%	?	10%	5.0%	-1%	1%
CCOC(CCn1c(SCc2cccc([N+](=O)[O-])c2)nc2ccccc2c1=O)OCC	-4%	-14%	?	?	4%	-7.8%	14%	-11%
CCNC(=O)NC(=O)COC(=O)CCCSc1nc2ccccc2[nH]1	7%	8%	0%	13%	5%	2.0%	8%	5%
Cc1cc(NC(=O)CSc2nc(CC(C)(C)C)nc3c2c(=O)n(C)c(=O)n3C)no1	-15%	-3%	-25%	.	.	-2.6%	12%	6%
COc1ccc(/C=C/C(=O)Nc2cc(C(F)(F)F)ccc2Cl)cc1	-10%	6%	.	0%	-14%	-5.7%	0%	-1%
O=C1OC(/C(=C\Nc2ccccc2)[N+](=O)[O-])c2ccccc21 (stereo not drawn)	59%	-88%	?	-15%[46.1 µM]	-27%	.	.	-6%
CC(C)NC(=O)c1onc(CSc2ccccc2F)c1C(=O)O	-1%	-2%	2%	.	.	-2.3%	0%	5%

# The results go on:
canonical_smiles	RE007 growth inh	NS1 inh	StopGo reporter	Marburg entry inh	Lassa entry inh	Cruzain Triton	Cruzain noTriton	SARS PLP yeast
N/C(=N/O)c1nc(N2CCCC2)nc(N2CCCC2)n1	?	.	0%	?	15%	.	.	-2%
Cc1ccc(C(=O)Nc2ccc(OCc3cc(=O)n4c5c(sc4n3)CCCC5)cc2)cc1	.	.	-4%	3%[46.1 µM]	-19%[46.1 µM]	-0.5%	6%	.
COc1ccc(C2CC(=O)c3cc(-c4nc(-c5cccc(Cl)c5)cs4)c(=O)[nH]c3C2)cc1OC (stereo not drawn)	.	.	-23%	-1%[46.1 µM]	5%[46.1 µM]	-3.4%	9%	.
CCCCc1nnc(NC(=O)CSc2nc(=O)cc(N)n2-c2cccc(C)c2)s1	12%	8%	10%	-18%	-10%	-18%	0%	3%
Cc1ccc(S(=O)(=O)/N=C(\N)Nc2nc(C)c3ccccc3n2)cc1	23%	13%	49%[activator]	?	1%	-10%	-15%	5%
COC(=O)C1CN(C(=O)C(C)Oc2ccc(F)cc2)c2ccccc2O1 (stereo not drawn)	8%	4%	-7%	-4%[46.1 µM]	7%[46.1 µM]	.	.	-1%
c1ccc(-c2cc3c(N4CCN(c5ncccn5)CC4)ncnc3s2)cc1	6%	.	?	-8%[14.2 µM]	-8%	.	.	-1%

# Complete entries as entered above:
# `Cc1ccc(S(=O)(=O)/N=C(\N)Nc2nc(C)c3ccccc3n2)cc1` is listed as RE007 growth inh = 23%; NS1 inh = 13%; StopGo reporter = 49%[activator]; Marburg entry inh = ?; Lassa entry inh = 1%; Cruzain Triton = -10%; Cruzain noTriton = -15%; SARS PLP yeast = 5%
# `COc1ccc(C2CC(=O)c3cc(-c4nc(-c5cccc(Cl)c5)cs4)c(=O)[nH]c3C2)cc1OC` (stereo not drawn) is listed as RE007 growth inh = .; NS1 inh = .; StopGo reporter = -23%; Marburg entry inh = -1%[46.1 µM]; Lassa entry inh = 5%[46.1 µM]; Cruzain Triton = -3.4%; Cruzain noTriton = 9%; SARS PLP yeast = .
